# High-throughput results deposited in PubChem BioAssay by National Center for Advancing Translational Sciences (NCATS).
# miR-21 reporter = miR-21 reporter, rising signal; HeLa miR-21 FLuc reporter, luciferase, 48 h; Potency, µM (titrated, usually from 38.3 µM), inactives show at the highest dose reporter change, positive = more light; 340,000 tested, under 10 active; AID 2288; active = well fitted rising curve with a large enough effect; inconclusive = small, poorly fitted or top-dose-only effect; inactive = no such curve, though single readings can be large or run the other way;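 also: % of control where 0% means no effect; miR-21 action dims this reporter so a rising signal means less miR-21 action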
#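 HeLa cells endogenously expressing miR-21, stably carrying CMV-driven firefly luciferase with a downstream miR-21 binding site, 2000 cells/well. Titrations up to approximately 40 uM, 48 hours; luciferase luminescence read.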
# Rango release inh = prevents RanGTP from dissociating the Rango-importin beta complex | O95149+P62826 | Potency, µM (doses to about 46.1 µM), for the others: top-dose activity change, negative = inhibition | hit rate 0.071% among 340,000 | AID 540253 | Biochemical FRET Rango-importin beta, RanGTP-induced dissociation; active means falling FRET ratio curve, often poorly fitted, with flat reads before Ran was added; inconclusive means other falling curves, or compound fluorescence or quenching; inactive means flat or rising ratio curve;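 also: potency is read from the fitted curve at half-maximal effect; % of control where 0% means no effect; nearly all actives have a fitted effect of over 45% in size; -100% = wells without RanGTP and RCC1; the record marks most hits as doubtful in a second field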
#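 Rango/importin beta premix (0.1/0.25 uM final), PBS + 1 mM DTT + 0.02% Tween-20 + 0.1% BSA; cpd 5 min RT; FRET pre-read; + RanGTP-RCC1 (0.6 uM Ran, 2 mM GTP, 0.2 uM RCC1); 45 min RT; FRET post-read, ex 430, em 486/530 nm.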
# GLA inh pH 4.5 = alpha-galactosidase A (human) inhibition, pH 4.5; P06280; purified enzyme, 4-MU-alpha-Gal fluorescence, pH 4.5; activity change, negative = inhibition, % at 105 µM; 230,000 tested, under 10 active; inconclusive = small, poorly fitted or top-dose-only inhibition, or a rising curve; inactive = flat fitted curve, though single readings scatter; no compound was filed as active;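 also: 0% = full activity with enzyme and -100% = basal without enzyme; dose as in the result columns while the protocol names 77 µM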
# Target sequence (P06280 whole entry, looked up): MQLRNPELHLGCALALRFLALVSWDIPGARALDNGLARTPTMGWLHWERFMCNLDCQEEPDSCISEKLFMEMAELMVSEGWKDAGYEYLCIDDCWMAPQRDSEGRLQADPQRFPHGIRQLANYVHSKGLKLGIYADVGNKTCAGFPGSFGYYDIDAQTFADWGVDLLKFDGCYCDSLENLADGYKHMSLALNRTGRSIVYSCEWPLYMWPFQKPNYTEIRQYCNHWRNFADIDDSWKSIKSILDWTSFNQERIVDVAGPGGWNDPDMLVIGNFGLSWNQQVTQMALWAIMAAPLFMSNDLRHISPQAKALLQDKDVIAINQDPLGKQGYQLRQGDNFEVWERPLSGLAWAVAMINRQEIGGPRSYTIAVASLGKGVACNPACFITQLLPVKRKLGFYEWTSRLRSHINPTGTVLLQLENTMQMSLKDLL
# Rango complex inh = inhibitors of Rango-importin beta complex formation; Rango CFP/YFP FRET sensor + importin beta, 45 min; Potency, µM (titrated, usually from 92.2 µM), inactives show at the top dose inhibition of complex formation; hit rate 0.031% among 340,000; active = rising FRET ratio curve, often small or poorly fitted; inconclusive = mostly compound fluorescence or quenching in the first reads; inactive = flat curves in all reads;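 also: potency is read from the fitted curve at half-maximal effect; 0% = DMSO wells and 100% = buffer wells lacking importin beta; nearly all actives have a fitted effect of over 15% in size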
#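 Inhibition scored from the CFP 486 nm/YFP 530 nm FRET ratio 45 min after adding 0.125 microM importin beta to 50 nM Rango biosensor preincubated 5 min with compound (room temperature, PBS with DTT, Tween-20, BSA). No-importin wells as positive control.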
# An asterisk follows results filed as active; u = inconclusive; x = no result given.
# Below each compound – miR-21 reporter	GLA inh pH 4.5	Rango release inh	Rango complex inh
Cc1ccc(C2CC3CCC(C2)N3Cc2ccccc2F)cc1 (configuration not stated)
    5.0%	x	4.7%	3.5%
O=C1NC(=O)C(=Cc2ccccc2OCCOc2ccc([N+](=O)[O-])cc2)C(=O)N1
    7.9%	7.0	-4.9%	u
Cn1c(O)c(C(c2ccccn2)c2c(O)n(C)c(=S)n(C)c2=O)c(=O)n(C)c1=S
    -0.4%	3.4	-7.0%	-5.6%
CCn1c(P(C)(=O)O)nc2ccccc21
    3.3%	-12.8	-17.3%	1.1%
CCOC(=O)C1(c2ccccc2)CCN(CCc2ccc(NC(=O)CCC(=O)O)cc2)CC1
    x	x	5.7%	3.7%
CCOc1ccccc1NC(=O)N1CCC2(CC1)OCCO2
    -2.6%	4.0	-14.7%	-0.9%
O=C(c1ccc2c(c1)OCO2)C1CCCN(Cc2c(F)cccc2Cl)C1 (configuration not stated)
    -2.7%	x	-13.1%	-0.8%
Cc1ccccc1-[n+]1c(-c2ccccc2)cc(-c2ccccc2)cc1-c1ccccc1
    x	x	-0.8%	-3.2%
O=C(N/N=C/c1c(O)n(Cc2ccccc2)c(=O)[nH]c1=O)c1ccccc1O
    -5.7%	13.9	-8.8%	-5.4%
Fc1c(F)c(F)c(N2CCNCC2)c(F)c1F
    -2.4%	5.2	5.7%	-3.4%
CCN(CC)c1ccc(CC2C(=O)N(C)C(=O)N(C)C2=O)cc1
    1.2%	7.8	-11.6%	u
NCCc1ccc(S(=O)(=O)F)cc1
    x	4.2	-24.4%	-2.7%
CCCC1(CCC)C(=O)NC(=Nc2ccc(C)cc2)NC1=O
    -2.1%	4.1	x	x
CCOC(=O)C1(CCc2ccccc2)CCN(C(C)CSC)CC1 (configuration not stated)
    x	x	4.8%	-0.3%
COC(=O)C1=C(c2ccc(S(C)(=O)=O)cc2)C[C@@H]2CC[C@H]1N2C(=O)N1CCC(O)CC1
    x	x	-4.2%	-5.1%
O=C1NC(=S)NC(=O)C1=Cc1c(Cl)cccc1Cl
    x	x	0.6%	-0.5%
Clc1ccccc1NC1=NCCCS1
    0.9%	x	1.4%	-3.2%
C[C@H](N)CN1CCc2ccc(Br)cc21
    x	2.9	0.2%	1.1%
Cc1cc2ccccc2n1CCNC(=O)Cc1ccccc1
    -8.5%	3.0	u	u
COC(=O)C1=C(c2ccc(OC)c(OC)c2)C[C@@H]2CC[C@H]1N2C(=O)NC(C)C
    x	x	0.3%	1.3%
CCC(C)N1C(=O)/C(=C\c2cc3c4c(c2)CCCN4CCC3)C(=O)NC1=S (configuration not stated)
    -1.4%	-5.4	-6.1%	u
c1cncc(CNCCN2CCNCC2)c1
    x	x	-6.6%	0.9%
Cc1cc(C(=O)C[N+]23CCN(CC2)CC3)c(C)n1-c1ccc(Br)cc1
    -2.8%	6.5	2.0%	0.4%
Cc1cccc(-n2c(O)c(/C=N/NC(=O)c3ccncc3)c(=O)[nH]c2=O)c1
    2.0%	0.6	-25.0%	-6.2%
Cc1ccc2nc(-c3ccncc3)cc(C(=O)N3CCC4(CC3)OCCO4)c2c1
    -0.7%	-8.4	25.5%	1.7%
CCN(CC)c1ccc(CN2CC=C(c3ccc(F)cc3)CC2)cc1
    2.8%	-7.2	-10.0%	-4.3%
O=[N+]([O-])c1ccc(C(c2ccc([N+](=O)[O-])cc2)c2ccc([N+](=O)[O-])cc2)cc1
    x	x	-3.5%	-2.2%
Cc1nc2ccc(NC(=O)C3COc4ccccc4O3)cc2s1 (configuration not stated)
    -74.1%	-12.1	-10.3%	-5.3%
CC(C)(C)c1ccc(OC(=O)N2CCCCC2)cc1
    -48.7%	4.0	7.5%	-1.8%
COc1ccc(-n2c(O)c(C=NCCCn3ccnc3)c(=O)[nH]c2=O)cc1
    0.3%	4.8	15.1%	7.8%
CN1CCN(c2ccc(C(N)=O)cc2N)CC1
    -4.1%	4.8	3.5%	-1.3%
COC(=O)C1=C(c2ccc(OC(F)(F)F)cc2)C[C@@H]2CC[C@H]1N2C(=O)NCCCOC(C)C
    x	x	-2.8%	-0.9%
CCOC(=O)N(c1ccccc1)P1(=S)OCCO1
    -7.0%	-3.2	-3.3%	-1.7%
COC(=O)C1=C(c2ccc(OC(F)(F)F)cc2)C[C@@H]2CC[C@H]1N2C(=O)NC(C)C
    x	x	9.5%	-0.2%
NC(Cc1ccccc1)c1nn[nH]n1 (configuration not stated)
    x	x	6.3%	4.2%
CC(=NC(C)c1ccccc1)c1c(O)[nH]c(=O)[nH]c1=O (configuration not stated)
    -16.9%	-5.1	0.5%	-1.4%
CCOc1cc(C=O)ccc1O
    x	x	9.2%	-0.4%
COP(=O)(OC)C(Nc1ccccn1)c1ccccc1 (configuration not stated)
    -11.0%	-1.3	-5.0%	1.8%
CC(NC(=O)Cc1cccc2ccccc12)C(=O)N1CCC(=O)CC1 (configuration not stated)
    -0.4%	6.6	6.9%	0.8%
O=C1NC(=S)NC(=O)C1C1CCCCC1
    -0.1%	13.0	0.1%	-0.8%
CCOC(=O)C1SC2(C(F)(F)F)CC1(O)c1c(C)cc(C)nc1O2 (configuration not stated)
    -2.4%	-0.9	24.8%	-2.0%
C=COCCn1c(C)c(C(C)=O)c2cc(O)ccc21
    11.8%	5.4	-18.7%	-1.0%
CC(C)CNC(=O)/C=C/C=C/CCCCCC/C=C/c1ccc2c(c1)OCO2
    x	x	5.8%	1.3%
S=P1(Oc2ccccc2)Nc2ccccc2N1
    x	x	-4.6%	0.3%
Cc1ccc(NP(=O)(Oc2ccccc2)Oc2ccccc2)cc1
    x	x	0.0%	-3.4%
NC1(C(=O)O)CCCc2ccc(N(CCCl)CCCl)cc21 (configuration not stated)
    x	x	2.0%	1.3%
CCCOP(=O)(O)c1c([N+](=O)[O-])cc(C(F)(F)F)cc1[N+](=O)[O-] (tested in a mixture with another compound)
    -11.0%	5.3	16.8%	3.7%
O=C(c1ccc(Cl)cc1)N1CCC2(CC1)OCCO2
    3.3%	x	4.9%	0.0%
OCC1(CO)COC(c2cccnc2)N1 (configuration not stated)
    -7.5%	8.8	1.1%	-0.1%
CNC(=O)NC(O)C(Cl)(Cl)Cl (configuration not stated)
    -0.1%	x	0.0%	0.3%

# Other compounds follow.
# Below each compound – miR-21 reporter	GLA inh pH 4.5	Rango release inh	Rango complex inh
COc1cc(C)c(CN2CC=C(c3ccc(F)cc3)CC2)cc1C
    1.4%	x	-5.2%	-1.0%
CC(C)c1ccc(O)c(CN2CCN(c3ccccc3)CC2)c1
    -6.6%	-4.3	2.9%	1.5%
O=C(CN1CCCCC1)c1ccc(F)cc1
    -1.9%	-13.5	-15.3%	5.7%
Cc1ccc2c(c1)CC1(CN2C)C(=O)NC(=O)N(c2cc(C)ccc2C)C1=O (configuration not stated)
    -0.7%	12.6	-0.3%	-2.5%
COC(=O)C1=C(c2ccc(Cl)c(C(F)(F)F)c2)C[C@@H]2CC[C@H]1N2C(=O)N1CCC(C)CC1
    x	x	0.9%	-4.5%
CC[N+]12CCC(CC1)C(C(O)(c1ccccc1)c1ccccc1)C2 (configuration not stated)
    2.4%	4.2	5.4%	u
CCN1C[C@]2(CO)CC[C@H](OC)[C@@]34C5C[C@H]6[C@H](OC)C5[C@](O)(C[C@H]6OC)[C@@](O)(C(OC)C23)[C@@H]14 (some centres not stated)
    x	x	0.6%	4.1%
COc1ccc(CC(C)NC2CCCCCC2)cc1 (configuration not stated)
    -7.1%	x	1.2%	2.4%
CCCCSc1nc2c(cnn2-c2ccccc2)c(=O)n1N
    -41.9%	-3.1	9.0%	0.8%
COc1ccc(N2C(=O)NC(=O)/C(=C/c3cccc(OC(=O)c4cccs4)c3)C2=O)cc1Cl
    1.2%	-1.5	-5.8%	-1.0%
CN1C2CCC1CC(OC(=O)c1cccc(O)c1)C2 (configuration not stated)
    x	x	-19.4%	-0.7%
COc1ccc(C(=O)C2CCCN(Cc3cccc(C)n3)C2)c(OC)c1 (configuration not stated)
    10.5%	2.9	-11.8%	1.2%
Cc1ccc(-n2c(C)cc(/C=C3/C(=O)NC(=O)N(Cc4ccco4)C3=O)c2C)cc1
    -4.6%	1.4	u	u
O=C(COc1ccccc1)N1CCN(CCN2C(=O)c3cccc4cccc(c34)C2=O)CC1
    0.5%	-5.4	7.9%	1.0%
c1ccc2sc(NC3=NCCN3)nc2c1
    -51.6%	2.7	-22.9%	-0.1%
CC1N(O)C2CCCCCC2N1O (configuration not stated)
    -4.7%	1.1	10.4%	4.4%
O=c1cc(C(F)(F)F)c2cc3c4c(c2o1)CCCN4CCC3
    1.2%	-2.9	u	u
CCC1([N+](=O)[O-])COP(N)(=O)OC1 (configuration not stated)
    x	x	1.1%	1.6%
COc1ccc(N2C(=O)/C(=C/c3ccco3)C(=O)NC2=S)cc1
    -0.1%	x	u	u
CN1CCC(n2nccc2N)CC1
    0.3%	-1.9	-0.1%	1.0%
N/C(=N\[N+](=O)[O-])NCCCC(NC(=O)CNC(=O)c1ccccc1)C(=O)O (configuration not stated)
    -0.9%	3.1	1.3%	-1.9%
COc1ccccc1/C=N/N=C(/N)N[N+](=O)[O-]
    -24.7%	3.7	5.9%	u
Cc1ccc(N/N=C/c2c(O)n(-c3ccccc3)c(=O)[nH]c2=O)cc1
    -14.1%	-3.3	-12.5%	-4.8%
O=C(c1ccc(Cl)cc1)C1CCCN(Cc2cccc3cccnc23)C1 (configuration not stated)
    11.1%	-18.3	-23.0%	0.8%
CCOC(=O)c1sc(N=Nc2c(O)[nH]c(=O)[nH]c2=O)c(C(=O)OCC)c1C
    -45.1%	-9.2	x	x
CC(=O)N1Cc2cnnn2-c2ccccc2C1(C)C#N (configuration not stated)
    x	x	10.0%	1.6%
CCN(CC)P(=O)(Oc1ccccc1)Oc1ccccc1
    1.3%	-4.2	2.5%	-0.3%
CCCCOP(=O)(CN1CCOCC1)OCCCC
    -1.5%	6.9	3.5%	4.1%
CC(C)NS(=O)(=O)c1ccc(OCC(=O)N2CCN(C)CC2)cc1
    -0.2%	-7.2	-27.7%	3.1%
CCN1CCN(Cc2cc3c(cc2[N+](=O)[O-])OCO3)CC1
    -0.7%	x	0.5%	0.4%
CN1C[C@H](CO)C=C2c3cccc4[nH]cc(c34)C[C@H]21
    0.4%	1.5	u	u
O=C1Nc2ccc(Br)cc2C(c2ccccc2)=NC1O (configuration not stated)
    0.1%	x	-17.5%	0.5%
CCOC(=O)C1(CCOc2ccccc2)CCN(Cc2cccc(O)c2)CC1
    16.7%	x	-0.4%	-4.0%
CC(C)COP(=O)(OCC(C)C)C(O)c1cccnc1 (configuration not stated)
    -1.9%	-0.1	5.9%	1.7%
CC(C)(C)c1ccc(CSc2cnn(C(C)(C)C)c(=O)c2Cl)cc1
    9.4%	x	5.2%	0.0%
COCCOC(=O)C1=C(N)Oc2c(c(=O)oc3ccccc23)C1c1ccncc1 (configuration not stated)
    -0.1%	-5.9	-5.2%	0.1%
Cn1cccc1/C=C1\C(=O)NC(=O)N(Cc2ccccc2)C1=O
    6.7%	0.4	-8.4%	u
CCC(C)C1NC(=O)C2CCCN2C(=O)C(CC(C)C)OC(=O)CCNC(=O)C(C)N(C)C(=O)C(C(C)C)N(C)C1=O (configuration not stated)
    x	x	-8.8%	0.3%
C=C1C(=O)O[C@@H]2C[C@@H](C)[C@@H]3C4OC4C(=O)[C@@]3(C)[C@@H](O)[C@H]12 (some centres not stated)
    u	-16.9	7.4%	0.0%
COc1ccc(CC(=O)Nc2ccc(C#N)c(Cl)c2)cc1S(=O)(=O)N1CCOCC1
    -4.7%	x	-4.2%	1.1%
COc1ccc(C2(C#N)CCN(C)CC2)cc1
    -6.9%	-3.4	22.7%	u
CC(=O)O[C@@H]1[C@H]2CC[C@@H]3[C@]1(C[C@@H](OC(C)=O)[C@@]1(O)C([C@@H]4O[C@@H]4C1(C)C)[C@]3(C)O)C[C@@]2(C)O (some centres not stated)
    -0.4%	1.0	-5.7%	4.1%
O=C1NC(=O)C(=Cc2coc3ccccc3c2=O)C(=O)N1
    -5.3%	-0.6	8.8%	-1.9%

# Some of the compounds tested; count on the stated rates, not on these rows.
